Screens: PubChem BioAssay, several laboratories
FLuc stim CS – firefly luciferase counter-screen for stimulation assays; 200,000 tested, under 10 active; AID 1027; ATPlite luciferase biochemical, luminescence, 10 min; 0 = ATP-free wells, 1 = DMSO control; P08659; activation factor at 10 µM;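 active = luciferase activation factor, scaled between plate controls, of at least 2 with compound at 10 µM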
Target sequence (P08659 whole entry, looked up): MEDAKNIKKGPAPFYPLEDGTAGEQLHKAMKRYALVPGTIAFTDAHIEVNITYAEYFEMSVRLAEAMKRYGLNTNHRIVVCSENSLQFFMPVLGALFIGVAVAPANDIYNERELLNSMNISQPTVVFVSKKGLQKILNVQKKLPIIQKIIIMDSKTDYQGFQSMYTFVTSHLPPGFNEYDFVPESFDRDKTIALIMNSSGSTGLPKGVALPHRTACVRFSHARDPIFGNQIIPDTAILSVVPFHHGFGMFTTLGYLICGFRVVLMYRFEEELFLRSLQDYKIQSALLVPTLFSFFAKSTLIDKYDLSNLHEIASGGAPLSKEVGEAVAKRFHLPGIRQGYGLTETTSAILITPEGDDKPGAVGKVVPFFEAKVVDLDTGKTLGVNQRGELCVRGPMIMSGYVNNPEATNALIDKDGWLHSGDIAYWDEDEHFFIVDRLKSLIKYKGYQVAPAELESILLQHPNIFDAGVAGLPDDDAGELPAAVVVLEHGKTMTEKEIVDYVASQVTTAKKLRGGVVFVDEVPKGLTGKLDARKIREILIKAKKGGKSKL
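Material: Luciferase/luciferin reagent mix | Doses: Test compounds dosed from 2 mM stocks in 100% DMSO | Timing: 10 min incubation after luciferase reagent addition, room temperature | Measured by: Luminescence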
Efa HMGR inh – inhibitors of class II HMG-CoA reductase from Enterococcus faecalis | AID 1066 | inhibition, % at 10 µM | 190,000 compounds, 0.41% hits | purified E. faecalis HMGR, NADPH absorbance 340 nm kinetic;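 active = inhibition above a set limit, the median over all tested compounds plus 3 SD, cut at about 9.5% in these data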;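 note: enzyme runs in reverse so mevalonate oxidation gives rising NADPH absorbance; 0% = complete reaction with DMSO and 100% = background rate lacking mevalonate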
TNAP inh no acc – TNAP (human) inhibition, acceptor-free conditions. P05186. purified TNAP, CDP-star luminescence, 30 min. inhibition, % at 20 µM. 200,000 compounds, 0.26% hits. AID 1012;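 active = tissue-nonspecific alkaline phosphatase inhibition above about 50% at 20 µM in the single-dose screen, limit read from the data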;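 note: 0% = DMSO negative control and 100% = EDTA positive control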
Target sequence (P05186 whole entry, looked up): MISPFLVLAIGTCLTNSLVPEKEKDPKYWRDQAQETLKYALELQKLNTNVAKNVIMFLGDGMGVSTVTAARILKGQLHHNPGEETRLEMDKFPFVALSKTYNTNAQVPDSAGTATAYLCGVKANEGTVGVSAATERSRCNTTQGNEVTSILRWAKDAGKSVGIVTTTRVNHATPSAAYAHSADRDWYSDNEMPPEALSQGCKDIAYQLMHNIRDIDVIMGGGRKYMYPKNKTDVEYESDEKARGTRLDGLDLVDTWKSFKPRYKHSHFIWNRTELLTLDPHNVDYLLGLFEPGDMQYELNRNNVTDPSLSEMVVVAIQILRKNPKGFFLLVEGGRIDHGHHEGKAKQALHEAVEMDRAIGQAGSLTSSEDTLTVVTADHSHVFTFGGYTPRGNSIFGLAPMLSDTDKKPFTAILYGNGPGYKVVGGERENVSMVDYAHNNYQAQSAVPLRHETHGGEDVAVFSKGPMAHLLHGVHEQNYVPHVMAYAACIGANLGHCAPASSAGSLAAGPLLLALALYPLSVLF
G6PDH counter – inhibits Leuconostoc G6PDH, flagging false hits in G6PDH-based assays | Purified L. mesenteroides G6PDH, diaphorase/resazurin coupled fluorescence, 45 min | inhibition, % at 5 µM | 200,000 compounds, 0.12% hits | AID 1020; in the data active = inhibition above about 50%
TNAP inh hiacc – TNAP (human) inhibition, high acceptor. purified TNAP, CDP-star luminescence, 1 M DEA. inhibition, % at 20 µM. 200,000 compounds, 0.03% hits. AID 1135;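 active = over 50% inhibition of tissue-nonspecific alkaline phosphatase at 20 µM in the single-dose screen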;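 note: plate controls were DMSO wells for no effect and EDTA-quenched wells as full inhibition for full effect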
TNAP act hiacc – activators of human TNAP at high phosphate acceptor concentration; 200,000 tested, under 10 active; activation factor at 20 µM; purified TNAP, CDP-star luminescence, 1 M DEA, 30 min; hits give high values; 0 = EDTA background, 1 = DMSO-only activity;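 active = activation factor at least 2 at 20 µM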
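system = human TNAP | amount = enzyme diluted 1/800 final | reagent = 100 µM CDP-star substrate | signal = luminescent substrate turnover signal | dosing = one dose, 20 µM | benchmarks = EDTA negative control, DMSO positive control | measure = activation factor | timing = 30 min reaction, room temperature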
Diaph inh CS – counter-screen for diaphorase-based assays: diaphorase inhibitors and chemical oxidizers | diaphorase resazurin-to-resorufin fluorescence, NADH, 16 min; bacterial (C. kluyveri) enzyme, not human | inhibition, % at 20 µM | 190,000 compounds, 0.69% hits;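 active = primary screen inhibition at 20 µM above a set limit, cut at about 50% in these data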;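 note: plate controls were DMSO with full reaction for no effect and wells lacking NADH for full effect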
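controls = No-NADH positive control and DMSO neutral control | system = Clostridium kluyveri diaphorase enzyme | timing = reaction incubation of 16 min at room temperature | signal = resorufin fluorescence 544/590 nm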
Starred values were filed as active, the others as inactive. An excerpt, so the mix of outcomes need not match the whole.

entry	SMILES	FLuc stim CS	Efa HMGR inh	TNAP inh no acc	G6PDH counter	TNAP inh hiacc	TNAP act hiacc	Diaph inh CS
1	CCNC(=S)NNC(=O)c1csc2ccccc12	1.1	-1	-49	-2	-2	1	13
2	Nc1c(Cl)ncnc1N1CCOCC1	1.1	-1	-7	4	-3	1	15
3	CC(=O)Nc1nc2ccc(Br)cc2s1	1	-5	-11	1	-4	1	13
4	CN1CCc2c(c3ccccc3n2Cc2ccccc2)C1	1.1	-4	26	5	-7	1.1	-6
5	CCN(CC)CCN1C(=O)C(=O)/C(=C(/O)c2cccc(OC)c2)C1c1ccccn1 (stereo not drawn)	1	-5	-7	7	-2	1	18
6	Cc1ccc(S(=O)(=O)Nc2nc(C)cc(NCCN)n2)cc1	1.1	1	0	3	-2	1	8
7	C=C(C)[C@H]1CC=C(C)/C(=N/NC(=O)CNc2ccccc2OC)C1	1.1	1	-5	7	0	1	6
8	CCc1cccc(CC)c1NC(=O)CN1CC(C)SC1=NC1CCCCC1 (stereo not drawn)	1	-4	-5	-5	-4	1	10
9	COc1ccc(S(=O)(=O)N2CCCN(CC(=O)Nc3ccc4c(c3)OCO4)CC2)cc1	1.1	-7	-6	5	-1	1	4
10	COCCCNC(=O)CC(NS(=O)(=O)c1ccc(C)cc1)c1ccc(OC)cc1 (stereo not drawn)	1	2	-5	-5	-1	1	7
11	CN1CCN(c2ccc([N+](=O)[O-])cc2C(=O)c2ccc(Br)cc2)CC1	1	-8	4	4	2	1	5
12	O=C1NN(c2ccccc2)C(=O)/C1=C\c1ccccc1OCC(=O)N1CCOCC1	1	1	-5	6	-2	1	16
13	O=C(Nc1ccc(-c2nc3ccccc3[nH]2)cc1)c1ccc2c(c1)OCO2	1	-2	-7	3	-2	1	-20
14	Cc1ccc(S(=O)(=O)n2nc(C)c(Br)c2C)c(C)c1C	1	3	-7	13	-5	1	6
15	CCSc1nnc(-c2ccncc2)o1	1	0	-9	4	-2	1	2
16	CCc1ccc(OCC(=O)NCCN(C)C)c(Br)c1	1	-4	-12	-2	-5	1.1	9
17	CCCn1c(-c2cc(OC)c(OC)c(OC)c2)nc2nc3ccccc3nc21	1.1	2	-12	-5	-7	1.1	9
18	O=C1CCCC2=C1C(c1ccc(Cl)cc1)C1C(=O)c3ccccc3C1=N2 (stereo not drawn)	1	-1	17	5	13	0.9	24
19	COc1ccccc1Cn1nnc2c(=O)[nH]c(C3CCN(C(=O)c4ccc(F)cc4)CC3)nc21	1.1	-11	-11	0	-8	1.1	6
20	O=C(c1cccc(F)c1)N1C2C=CC(C2)C1(C(F)(F)F)C(F)(F)F (stereo not drawn)	1	2	-4	1	1	1	5
21	Cc1oc2cc(O)ccc2c(=O)c1-c1cnn(-c2ccccc2)c1	1	2	1	8	-1	1	11
22	COc1ccc(NC(=O)C(CCS(C)(=O)=O)NC(C)=O)cc1 (stereo not drawn)	1	-4	-8	5	1	1	-4
23	CCCCN(CCCC)c1nc(OC)nc(-n2nnc(C(C)=O)c2C)n1	1.1	-4	-3	6	-1	1	14
24	COc1ccc(C2CC(=O)C(C=NCCN3CCOCC3)=C(O)C2)cc1 (stereo not drawn)	1	2	-4	3	-6	1.1	7

Reprinted at random: 3 records from the list.
entry	SMILES	FLuc stim CS	Efa HMGR inh	TNAP inh no acc	G6PDH counter	TNAP inh hiacc	TNAP act hiacc	Diaph inh CS
14	Cc1ccc(S(=O)(=O)n2nc(C)c(Br)c2C)c(C)c1C	1	3	-7	13	-5	1	6
13	O=C(Nc1ccc(-c2nc3ccccc3[nH]2)cc1)c1ccc2c(c1)OCO2	1	-2	-7	3	-2	1	-20
19	COc1ccccc1Cn1nnc2c(=O)[nH]c(C3CCN(C(=O)c4ccc(F)cc4)CC3)nc21	1.1	-11	-11	0	-8	1.1	6

Next part:
entry	SMILES	FLuc stim CS	Efa HMGR inh	TNAP inh no acc	G6PDH counter	TNAP inh hiacc	TNAP act hiacc	Diaph inh CS
25	C=CCn1c(SCc2nc3ccccc3[nH]2)nnc1-c1cccc(OC)c1	1	-5	-16	0	-4	1	14
26	Clc1ccc(-c2ccnc(Oc3cc(Cl)ccc3Cl)n2)cc1	1.1	-4	6	9	-4	1	-4
27	COc1ccc(CNC(=O)Cc2c(C(=O)O)[nH]c3ccccc23)cc1	1	-5	-6	5	2	1	-10
28	CCOc1ccccc1C(=O)N(Cc1cccs1)C1CCS(=O)(=O)C1 (stereo not drawn)	0.9	-1	-7	7	-5	1.1	18
29	COc1cccc(C(=O)N2N=C(c3cccc(OC)c3)CC2(O)C(F)(F)F)c1 (stereo not drawn)	1	-3	5	7	1	1	25
30	OCC1N=C(c2ccccn2)OC1c1ccccc1 (stereo not drawn)	1	-8	-7	2	2	1	0
31	COc1cc(CNCCN2CCOCC2)ccc1OCc1ccc(Cl)cc1Cl	1	2	8	-4	4	1	3
32	COC(=O)CSc1nc(C)cc(C(F)(F)F)c1C#N	1.1	-2	11	3	-5	1	5
33	CCOc1cc(C)c(Cl)cc1S(=O)(=O)N(C)C	1.1	-8	-5	3	0	1	15
34	CCN(CC)S(=O)(=O)c1cc(-c2nn(C)c(=O)c3ccccc23)ccc1C	1	0	-5	8	-3	1	17
35	Cc1ccc(NC(=O)c2ccc(S(=O)(=O)N3CCCCC3)cc2)cc1	1.1	2	-8	4	-4	1	10
36	CCOC(=O)Cc1csc(NC(=O)c2c(-c3c(Cl)cccc3Cl)noc2C)n1	1.1	-5	7	14	-3	1	9
37	COc1cc2c(cc1OC)C(C(=O)NCc1cccnc1)C(c1cccnc1)N(C)C2=O (stereo not drawn)	1	-1	-5	6	-1	1	8
38	Cc1ccc(NS(=O)(=O)c2ccc(NC(=O)c3cccc(NC(=O)C(C)C)c3)cc2)cc1	1.1	-10	-11	6	-3	1	21
39	CCOC(=O)c1[nH]c2ccc(OC)cc2c1NC(=O)NC(C)C	1	-9	-11	5	-4	1	6
40	C[N+]1(CC(=O)Nc2ccc(F)cc2)CCN(C(=O)c2ccco2)CC1	1.1	1	-13	3	-5	1	4
41	COc1ccc(S(=O)(=O)N2Cc3ccccc3CC2C(=O)Nc2nccs2)cc1 (stereo not drawn)	1	-5	-13	8	-5	1	11
42	COc1ccc(Cl)cc1C(=O)NNC(=S)NC(=O)c1cc(-c2ccc(Cl)cc2)nc2ccccc12	0.9	-4	-11	4	-3	1	-19
43	c1coc(CNc2ncnc3nc[nH]c23)c1	1.1	2	-18	20	-2	1	4
44	CCCc1nnc(NC(=O)C(CC)OC(=O)c2cc(C)nc3ccccc23)s1 (stereo not drawn)	1.1	-7	-7	-2	-3	1	15
45	c1ccc(CNc2ncnc3nc[nH]c23)cc1	1	2	-41	0	-2	1	6
46	CCCS(=O)(=O)N1CCC(C(=O)N2CCN(Cc3ccccc3)CC2)CC1	1.1	1	-9	2	-2	1	-4
47	COc1cccc(C2c3c(-c4ccccc4)n[nH]c3C(=O)N2c2ccc(C(=O)O)cc2)c1 (stereo not drawn)	1	-7	10	1	-3	1	11
48	CCc1nc(SCC(=O)c2cccs2)c2oc3ccccc3c2n1	1.1	-3	11	-2	-9	1.1	12
49	CCCC(C)c1nnc(NC(=O)c2cc(C(=O)OC)cc([N+](=O)[O-])c2)s1 (stereo not drawn)	1	1	2	8	4	1	13
50	Cc1sc(NC(=S)NC(=O)C(C)(C)C)c(C(N)=O)c1C	1	-2	16	17	-2	1	33
51	O=C(Cc1ccccc1)NC(Nc1cccc2ccccc12)C(Cl)(Cl)Cl (stereo not drawn)	1	4	-12	4	-3	1	69*
52	COc1ccc(NC(=O)CSc2ncnc3c2cnn3CCc2ccccc2)cc1	1.1	-4	-15	2	-6	1.1	12
53	CC(=O)NC1(C(F)(F)F)NC(=O)N(C2CCCCC2)C1=O (stereo not drawn)	1	-3	-7	5	-2	1	6
54	O=C(CSc1nnc2c3ccccc3c3ccccc3c2n1)Nc1ccccc1F	1	-5	-8	35	-2	1	22
55	COc1ccc(CCNC(=O)c2cc(-c3cc(Cl)cc(Cl)c3)oc2C)cc1	1.1	-6	-9	7	-8	1.1	24
56	Cc1cccc(/C=N/n2c(C)nnc2C)c1	1.1	-3	3	8	-4	1	13
57	CCC(C(=O)NC(C)(C)C)N(C(=O)Cn1nnc(-c2ccccc2F)n1)c1cccc2c1CCCC2 (stereo not drawn)	1.1	-1	-12	1	-4	1	18
58	CSc1nc(N2CCOCC2)c2c3c(sc2n1)CCC3	1.1	-1	-4	1	-2	1	18
59	O=C(Cc1cccs1)NNC(=S)NCc1ccc(Cl)cc1	1.1	-5	0	-3	-9	1.1	6
60	CCCCn1c(SC(C)C(=O)c2ccc(OC)cc2)nc2cc(S(N)(=O)=O)ccc21 (stereo not drawn)	1.1	1	4	-2	-5	1.1	23
61	O=C(CSc1nnc(-c2ccccc2)n1-c1ccccc1)c1cccs1	1.1	-7	-6	-2	-2	1	15
62	CCOc1cc(C(=O)N2CCN=C2SC)cc(OCC)c1OCC	1.1	-4	-12	-7	-2	1	10
63	CCCCn1nc2cc(C(=O)NCc3ccc(C(F)(F)F)cc3C(F)(F)F)ccc2c1OCC	1	2	-5	-1	1	1	18
64	O=C(NC1CCCCC1)NC1CC2CCCC(C1)N2C1CCCC1 (stereo not drawn)	1.1	-6	-12	2	-7	1.1	5
65	Cc1ccc(S(=O)(=O)N2CCN(C(=O)CN3CCOCC3)C2)cc1	1	-6	4	1	-1	1	9
66	COc1ccc(NC(=O)c2ccccc2NC(=O)CSc2ccc(C)cc2)cc1	1	-2	-36	8	-2	1	4
67	CCN(c1ccc(NC(=O)COC(=O)c2ccc(S(=O)(=O)N3CCCC3)cc2)cc1)C(C)C	1	-6	-3	3	2	1	-8
68	CCOC(=O)c1cc2c(=O)n3ccccc3nc2n(Cc2ccco2)c1=NC(=O)c1cccnc1	1	-6	-3	-1	1	1	37
69	CCCCCn1c(SCC(=O)c2ccccc2)nc2cc(C(=O)NCc3ccco3)ccc2c1=O	1.1	3	-3	11	-5	1.1	7
70	Cc1nnc(NC(=O)c2sc3nc(-c4cccs4)cc(C(F)(F)F)c3c2N)s1	1.1	-4	8	1	6	0.9	8
71	CCSc1nc2nc(C)cc(C)n2n1	1.1	-5	-1	-1	-2	1	12
72	CCOc1cc(/C=C2/C(=O)N(c3ccccc3)N=C2C)ccc1OC(=O)c1cccs1	1.1	0	-10	-1	7	0.9	22
73	COc1ccc(CCNc2cc(N3CCN(C(=O)c4ccccc4F)CC3)ccc2[N+](=O)[O-])cc1OC	1	-2	9	6	8	0.9	11
74	O=c1oc(-c2cccs2)nc2ccc(Br)cc12	1	-1	-8	5	0	1	1
75	CCCCNc1cc(=O)n(C)c(=O)n1C	1	0	-5	6	-2	1	5
76	CCCc1noc2c1/C(=N\O)CCC2	1.1	8	-9	-5	-3	1	8
77	COc1ccccc1OC(C)C(=O)O (stereo not drawn)	1	-6	-10	1	-4	1	4
78	Cc1ccc(C(=O)Nc2ccccc2Oc2ccccc2)cc1[N+](=O)[O-]	1.1	-2	1	10	-5	1	24

Laid out differently: entries from further up
31) COc1cc(CNCCN2CCOCC2)ccc1OCc1ccc(Cl)cc1Cl
  FLuc stim CS = 1
  Efa HMGR inh = 2
  TNAP inh no acc = 8
  G6PDH counter = -4
  TNAP inh hiacc = 4
  TNAP act hiacc = 1
  Diaph inh CS = 3

17) CCCn1c(-c2cc(OC)c(OC)c(OC)c2)nc2nc3ccccc3nc21
  FLuc stim CS = 1.1
  Efa HMGR inh = 2
  TNAP inh no acc = -12
  G6PDH counter = -5
  TNAP inh hiacc = -7
  TNAP act hiacc = 1.1
  Diaph inh CS = 9

37) COc1cc2c(cc1OC)C(C(=O)NCc1cccnc1)C(c1cccnc1)N(C)C2=O (stereo not drawn)
  FLuc stim CS = 1
  Efa HMGR inh = -1
  TNAP inh no acc = -5
  G6PDH counter = 6
  TNAP inh hiacc = -1
  TNAP act hiacc = 1
  Diaph inh CS = 8
